RGS16-Gao: RGS16-Galphao interaction regulator (human); bead-based flow cytometry RGS16-Galphao binding, fluorescence; actives lie on both sides; 220,000 tested, 0.38% active; binding response (% of control), % at 10 µM;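 active = below 25% or above 175%, edge rows of some plates excepted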;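 note: Galphao activated by GDP with aluminum fluoride before binding; 100% = wells without compound and 0% = beads without RGS; some results beyond the cut were filed as inactive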
GALR2 agonist: GALR2 (human) receptor agonism. O43603. GALR2-expressing cells, agonist activation read-out. activation, %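 (tested at 5 µM)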. 140,000 tested, 0.48% active. AID 803;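 active = above mean plus 3 SD of all compounds, about 5% in these data, not always enough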;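 note: 0% = vehicle buffer wells and 100% = reference agonist at full effect; tested in CHO reporter cells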
HSV replic up: increases HSV replication in cells | HSV replication augmentation in cells, fold increase | maximum fold increase | 220,000 tested, 0.005% active | AID 1956;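 active = peak rise of 1.5-fold or more in the series; inconclusive = self-fluorescent or not available for retest; tested in PC3 cells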;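 note: first round at 10 µM; read as green reporter fluorescence; hits show the peak of a series up to 25 µM; 1 = signal of infected wells without compound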
PKD1 inh: blocks activity of human protein kinase D1; Q15139; PKD1 kinase fluorescence polarization assay; inhibition, %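 (about 10 µM by stock and volumes)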; 200,000 tested, 0.056% active; AID 797;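 active = inhibition of 50% or more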;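 note: controls were vehicle for no effect and a reference inhibitor for full effect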
Target sequence (Q15139 whole entry, looked up): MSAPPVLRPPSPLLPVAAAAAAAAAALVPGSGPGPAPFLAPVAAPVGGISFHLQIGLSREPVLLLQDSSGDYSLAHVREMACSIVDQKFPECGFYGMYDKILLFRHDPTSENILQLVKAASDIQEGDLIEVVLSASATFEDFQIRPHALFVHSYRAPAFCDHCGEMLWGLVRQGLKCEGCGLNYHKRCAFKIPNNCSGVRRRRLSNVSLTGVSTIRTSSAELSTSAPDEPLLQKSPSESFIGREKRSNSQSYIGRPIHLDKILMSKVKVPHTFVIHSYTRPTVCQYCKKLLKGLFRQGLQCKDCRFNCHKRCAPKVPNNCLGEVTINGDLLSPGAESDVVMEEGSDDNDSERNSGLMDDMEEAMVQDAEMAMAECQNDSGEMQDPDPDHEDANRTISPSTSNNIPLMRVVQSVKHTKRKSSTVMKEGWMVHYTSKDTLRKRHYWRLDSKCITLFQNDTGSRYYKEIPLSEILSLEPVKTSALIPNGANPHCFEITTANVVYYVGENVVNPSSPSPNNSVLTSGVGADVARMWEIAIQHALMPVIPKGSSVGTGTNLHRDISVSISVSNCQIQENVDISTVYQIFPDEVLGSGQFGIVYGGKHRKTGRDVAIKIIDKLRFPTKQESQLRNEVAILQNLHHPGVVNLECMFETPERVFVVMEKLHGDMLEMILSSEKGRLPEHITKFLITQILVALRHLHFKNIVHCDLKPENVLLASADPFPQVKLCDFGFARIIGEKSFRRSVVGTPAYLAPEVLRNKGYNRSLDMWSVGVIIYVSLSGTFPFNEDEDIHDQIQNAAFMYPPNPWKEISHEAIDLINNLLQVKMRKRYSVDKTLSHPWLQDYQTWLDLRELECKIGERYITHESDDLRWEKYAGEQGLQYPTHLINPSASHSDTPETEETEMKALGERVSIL
INS promoter inh: TRM-6 insulin promoter activity inhibition | TRM-6 cells (human fetal islet line), insulin promoter-eGFP reporter, imaging; reporter expression induced with tamoxifen | inhibition, % at 2 µM | 130,000 tested, 0.9% active | AID 1273;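 active = inhibition above the mean plus 3 SD, with well images judged a real hit on visual review, cut at about 60% in these data, passing the limit was not always enough; inconclusive = inhibition over the cutoff but images rejected on review; inactive = inhibition not above the cutoff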
INS promoter inh cell count: recorded beside INS promoter inh, whose call it bears; normalized cell count, %; measured here: cell count, toxicity; reference of the scale not given here;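 cells exposed to compound for 48 h; stained nuclei by imaging scaled within each plate; lower means fewer cells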
HSV replic up primary fold: recorded beside HSV replic up, whose call it bears; fold increase; compound at 10 µM; measured here: primary screen fold increase 10 uM; tested in PC3 cells;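 GFP signal in the first replicate; 1 = infected wells without compound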
* = called active by the depositor; i = inactive; ? = inconclusive; . = not tested or not shown; [ ] = dose if it differs, or a comment.

Value order – RGS16-Gao, INS promoter inh, GALR2 agonist, INS promoter inh cell count, PKD1 inh, HSV replic up primary fold, HSV replic up
COc1cc(Br)c(Br)cc1N
    100, ., ., ., ., 0.71, i
Cc1csc(NC(=S)Nc2cccc(Cl)c2)n1
    100, 7, -0.3, 65, -3, 1.1, i
O=C(Nc1ncc(Cl)cc1Cl)c1c(F)cccc1Cl
    101, ., ., ., 3, 0.96, i
C#CCOC(=O)/C(=C/C=C/c1ccccc1)NC(=O)c1ccccc1
    101, -10, 0.0, 81, 2, 0.85, i
Cc1ccc(-c2nc(CS(=O)CC(=O)NC3CCC(C)CC3)c(C)o2)cc1 (stereo not given)
    99, ., -1.6, ., -6, 0.96, i
O=C(CSc1n[nH]c(=O)n1C1CC1)NCc1ccccc1
    104, ., ., ., ., 0.92, i
Cc1ccc(NC(=O)C(Cc2ccccc2)NC(=O)OCc2ccccc2)cc1C (stereo not given)
    109, ., -1.0, ., -10, 1, i
O=C(c1cnccn1)N1CCN(c2ccccc2F)CC1
    102, ., -2.6, ., 1, 1, i
COc1ccccc1-c1cc(C(F)(F)F)nc(S(=O)(=O)CCCC(=O)O)n1
    102, 19, -2.5, 110, 6, 0.94, i
O=C(O)c1cc(-c2ccc(/C=C3\NC(=O)N(c4ccc(Cl)cc4)C3=O)o2)ccc1Cl
    100, 11, ., 87, 2, 1.2, i
O=C(Oc1oc(-c2ccco2)nc1C=Nc1ccccc1)c1ccoc1
    85, ., -1.7, ., -12, 0.93, i
O=C(C1CCN(S(=O)(=O)c2ccccc2[N+](=O)[O-])CC1)N1CCOCC1
    97, ., ., ., 0, 0.97, i
CCOC(=O)c1ccc(NC(=S)NC(=O)c2nn(CC)cc2Br)cc1
    79, -30, -0.3, 82, -9, 1, i
COc1ccc(Oc2nc(-c3ccccc3)ncc2S(=O)(=O)c2ccccc2)cc1
    99, -13, -1.3, 110, -4, 0.84, i
O=C(COc1cccnc1[N+](=O)[O-])c1c[nH]c2ccccc12
    101, ., ., ., ., 1.3, i

3 entries from above, set out differently:
mol | RGS16-Gao | INS promoter inh | GALR2 agonist | INS promoter inh cell count | PKD1 inh | HSV replic up primary fold | HSV replic up
COc1cc(Br)c(Br)cc1N | 100 | . | . | . | . | 0.71 | i
O=C(C1CCN(S(=O)(=O)c2ccccc2[N+](=O)[O-])CC1)N1CCOCC1 | 97 | . | . | . | 0 | 0.97 | i
Cc1ccc(NC(=O)C(Cc2ccccc2)NC(=O)OCc2ccccc2)cc1C (stereo not given) | 109 | . | -1.0 | . | -10 | 1 | i

Later entries
Value order – RGS16-Gao, INS promoter inh, GALR2 agonist, INS promoter inh cell count, PKD1 inh, HSV replic up primary fold, HSV replic up
Cc1ccc2nc(-c3ccc(NS(=O)(=O)c4ccc(F)cc4)cc3)sc2c1
    106, 7, 3.4, 90, -10, 0.88, i
O=c1cc(CSc2nnc(NC3CCCCC3)s2)nc2sccn12
    104, -7, ., 78, -1, 1, i
CCc1ccc(NC(=O)CSc2nnc(CNC(=O)c3c(F)cccc3Cl)o2)cc1
    100, 32, -4.6, 95, -1, 1.2, i
CCOc1cc(C(=O)Nc2nnc(CC)s2)ccc1OCC(=O)N1CCOCC1
    122, -42, -1.7, 138, -7, 0.91, i
C/C(=C\C=C(C#N)C#N)c1cc(C#N)c(N)o1
    105, ., ., ., -4, ., ?
CN1CCO/C1=C(\C(Cl)=C(Cl)Cl)[N+](=O)[O-]
    63, ., ., ., -4, 1, i
O=C(NCCSc1ccccc1)c1ccc(CN2CCOCC2)cc1
    103, ., ., ., ., 1, i
NS(=O)(=O)c1ccc(NC(=O)c2c(Cl)cccc2Cl)cc1
    105, 17, ., 83, 3, 1.1, i
Cc1ccc(C)c(NC(=O)CSc2nc3[nH]ncc3c(=O)[nH]2)c1
    99, 32, -0.7, 63, 2, 1.1, i
CC(/C=N/n1c(-c2ccncc2)n[nH]c1=S)=C\c1ccco1
    98, ., ., ., ., 1.1, i
COC(=O)Cc1c(OC)ccn(CCc2c[nH]c3ccccc23)c1=O
    78, 0, ., 86, -6, 1.1, i
COc1ccccc1C(=O)NCC(=O)OCC(=O)c1ccc2c(c1)-c1ccccc1C2
    99, 17, -1.9, 113, -7, 0.92, i
Cc1ccc(C2Nc3ccc4ccccc4c3C3=C2C(=O)CC(C)(C)C3)o1 (stereo not given)
    103, -19, -0.7, 95, 8, 0.84, i
COc1ccc(OCC(=O)Nc2nc3ccccc3[nH]2)cc1
    107, 9, -3.3, 33, -8, 1, i
O=C(COc1ccccc1)N(Cc1cccs1)C1CCS(=O)(=O)C1 (stereo not given)
    114, ., ., ., ., 0.89, i

Later entries.
Value order – RGS16-Gao, INS promoter inh, GALR2 agonist, INS promoter inh cell count, PKD1 inh, HSV replic up primary fold, HSV replic up
Cc1cc(NC(=O)CSc2nc3ccccc3n2CC(=O)N2CC(C)CC(C)C2)no1 (stereo not given)
    108, ., -0.4, ., -9, 0.81, i
CCN(CC)CCC#CC(O)(c1ccccc1)C1CCCCC1 (stereo not given)
    102, -7, ., 77, -4, 0.74, i
O=C(COC(=O)c1ccc[n+]([O-])c1)Nc1c(Br)cc([N+](=O)[O-])cc1Br
    99, ., ., ., 3, 1.1, i
O=C1CN(C(=O)COC(=O)c2ccccc2NCc2ccco2)c2ccccc2N1
    93, 16, -2.3, 109, -9, 0.96, i
Cc1cc(C)c(C)c(S(=O)(=O)Nc2ccc(OCC(=O)O)cc2)c1C
    96, ., -3.8, ., 10, 0.8, i
Fc1cccc(Cl)c1Cn1nnc2c(-n3ccnc3)ncnc21
    117, ., -0.1, ., 3, 0.79, i
Cn1c(=O)cc(SCC(=O)N2CCN(c3ccccn3)CC2)c2ccccc21
    109, ., -2.4, ., -6, 0.77, i
O=C(NC1CC1)c1sccc1-n1cccc1
    103, ., -2.8, ., 0, 1.1, i
CC(C)C(=O)NC(NC1CCS(=O)(=O)C1)C(Cl)(Cl)Cl (stereo not given)
    107, ., ., ., 4, 0.98, i
O=S1(=O)N=C(N2CCCc3ccccc32)c2ccccc21
    98, ., -3.8, ., -1, 0.97, i
O=C(Cc1ccc(-n2c(=O)c3sccc3n(CC(=O)Nc3ccccc3F)c2=O)cc1)NCc1ccco1
    99, ., ., ., 10, 0.88, i
Cn1cc(S(=O)(=O)NCc2ccco2)c(=O)n(C)c1=O
    81, ., -3.6, ., -14, 0.91, i
CCOC(=O)C1(CC)NC(c2ccc(N(C)C)cc2)C2C(=O)N(C)C(=O)C21 (stereo not given)
    102, ., 0.4, ., 3, 1.1, i
CC(C)n1cnc2c(Nc3cccc(Cl)c3)nc(N(CCO)CCCO)nc21
    102, ., ., ., ., 0.64, i
O=C1C2C3C=CC(CNS(=O)(=O)c4ccccc4)(O3)C2C(=O)N1c1ccc(Cl)cc1 (stereo not given)
    106, ., -0.1, ., -3, 0.97, i

More compounds follow.
Value order – RGS16-Gao, INS promoter inh, GALR2 agonist, INS promoter inh cell count, PKD1 inh, HSV replic up primary fold, HSV replic up
CC(=O)N1CCCc2cc(S(=O)(=O)NCCC3=CCCCC3)ccc21
    98, -23, -0.8, 101, -10, 0.99, i
Cc1ccccc1C(=O)NC(=S)Nc1ccc(S(=O)(=O)N2CCOCC2)cc1
    90, ., -0.1, ., 1, 1.1, i
COCCn1c(SCC#N)nnc1-c1ccc(OC)cc1
    102, -24, -2.6, 109, 3, 0.71, i
CCCC(=O)N1CC2(CCC)CN(C(=O)CCC)CC(CCC)(C1)C2=O
    96, 0, -0.7, 87, -12, 0.76, i
CCCCNC(=O)CC(=O)Nc1ccccc1C(=O)O
    84, 38, -0.6, 108, -15, 1.2, i
O=C(O)c1cc2c(ccc3ccccc32)oc1=O
    102, -193, -1.3, 101, -4, 1.3, i
Cc1ccc(-n2[nH]c(C)c(/C=N/Nc3ccc([N+](=O)[O-])cc3[N+](=O)[O-])c2=O)cc1C
    40, ., -0.4, ., 7, 0.92, i
N#CCCn1c(=O)n(CCC#N)c2ccccc21
    99, ., ., ., 11, 0.92, i
CC1C(C#N)=C(N)OC2=C1C(=O)CCC2 (stereo not given)
    101, 44, -1.2, 107, -3, 0.76, i
O=C(N/N=C\c1ccc([N+](=O)[O-])o1)c1cncc(Br)c1
    98, ., ., ., ., 1, i
CC(NCCC(Cc1ccccc1)c1ccco1)c1ccccc1 (stereo not given)
    100, ., ., ., ., 0.83, i
O=C(Nc1nnc(-c2ccccc2F)s1)C1CCCO1 (stereo not given)
    ., 39, -1.1, 146, -9, 0.79, i
Cc1nn(-c2ccccc2)c(C)c1/C=N/NC(=O)c1cccs1
    75, -27, 0.5, 106, 3, 0.83, i
CCC(=O)N1CCc2cc(Br)cc(S(=O)(=O)N3CCN(C(=O)c4ccco4)CC3)c21
    95, 0, -1.0, 96, -1, 0.9, i
Cc1cc(C)n(CC(=O)N2c3ccccc3Sc3ccc(C(F)(F)F)cc32)n1
    106, ., -1.3, ., -13, 0.96, i

More compounds.
Value order – RGS16-Gao, INS promoter inh, GALR2 agonist, INS promoter inh cell count, PKD1 inh, HSV replic up primary fold, HSV replic up
O=C1CC(Nc2ccc(N3CCOCC3)cc2)C(=O)N1CCc1ccccc1 (stereo not given)
    106, ., -3.7, ., 0, 0.83, i
Cc1cccc(Nc2nc(N)nc(CSc3nccc(C)n3)n2)c1
    97, 23, -1.6, 46, -1, 0.88, i
Cc1ccc(CN2CCN(/N=C/c3ccc(Cl)c([N+](=O)[O-])c3)CC2)cc1
    105, 56, ., 71, -5, 1, i
Cc1cccc(C)c1NC(=O)/C(=C/c1ccco1)c1ccccc1
    104, -41, -1.8, 102, 0, 1.1, i
COc1cc(NC(=S)NC(=O)c2c(OC)cccc2OC)ccc1NC(=O)c1cccs1
    101, -3, -1.7, 47, -4, 0.81, i
NC(=O)CC(NC(=O)Cc1ccc(Br)cc1)c1ccc(NCc2cc(F)ccc2F)c([N+](=O)[O-])c1 (stereo not given)
    94, ., ., ., ., 0.78, i
CC1CCCCC1N=C1NC(C)(C)CS1 (stereo not given)
    96, 8, ., 100, -4, 0.95, i
CCN(CC)CCN1C(=O)C(=O)/C(=C(/O)c2ccc(OC)cc2)C1c1cccs1 (stereo not given)
    94, 17, -2.4, 92, -2, 0.96, i
O=C(CNc1ccc(Cl)cc1)NNC(=S)NCc1ccccc1
    97, ., ., ., 4, 1, i
CSc1ncccc1C(=O)N1CCCC(CCC(=O)NCc2ccc(F)c(F)c2)C1 (stereo not given)
    101, ., ., ., -5, 0.94, i
O=C(CSc1nc(-c2ccccc2)cs1)N1CCc2ccccc21
    88, -3, -0.1, 91, -5, 1, i
COc1ccc(-c2ccc(/C=C3\C(=O)N(c4ccccc4)N=C3c3ccccc3)o2)c([N+](=O)[O-])c1
    89, ., -0.6, ., -6, 1, i
O=C(c1ccc(COc2ccccc2Br)o1)N1CCCCCC1
    106, 46, -1.8, 57, -5, 0.98, i
COC(=O)c1oc(-c2ccc(Cl)cc2)nc1C
    101, 46, ., 66, -2, 1.2, i
COc1ccc(/C=N/n2c(=O)[nH]c3c([nH]c4ccc(Br)cc43)c2=O)cc1CN1CCOCC1
    104, -26, 0.8, 131, -4, 0.9, i

(listing goes on)
Value order – RGS16-Gao, INS promoter inh, GALR2 agonist, INS promoter inh cell count, PKD1 inh, HSV replic up primary fold, HSV replic up
COc1ccc(C2C(C(=O)N3CCCC3)CC(=O)N2c2ccc(OC)cc2)cc1 (stereo not given)
    102, 6, -0.2, 96, -5, 1.1, i
O=C(OCC(=O)c1c[nH]c2ccccc12)C1=COCCO1
    171, -17, -3.9, 98, 0, 0.87, i
CS(=O)(=O)c1nc(-c2ccc(F)cc2)cc(C(F)(F)F)n1
    99, ., ., ., 7, 0.86, i
C=CCn1c(=NC(=O)C2CC2)sc2cc(NC(C)=O)ccc21
    106, ., -2.5, ., 0, 0.94, i
O=C(NCc1ccccc1Cl)C(=O)NCC1OCCN1S(=O)(=O)c1cccs1 (stereo not given)
    94, -50, ., 153, -1, 1, i
COCCn1cnc2c1c(=O)n(CC(=O)OCC(=O)NCC(F)(F)F)c(=O)n2Cc1ccccc1
    100, ., 0.1, ., 4, 0.96, i
Nc1nc(N)nc(-c2ccc(Cl)cc2)n1
    103, -29, 0.3, 111, 0, 0.73, i
COC(=O)c1c(SCc2cccc3ccccc23)nc(=O)[nH]c1C
    89, ., ., ., ., 0.96, i
O=S1(=O)N=C(N(CCO)/N=C/c2ccccc2)c2ccccc21
    98, -18, ., 82, 3, 0.96, i
O=c1ccn(Cc2ccccc2)c(=O)n1Cc1ccccc1
    76, 6, -1.0, 102, -1, 1, i
COc1ccc(CNC(=O)c2cccc(C)c2[N+](=O)[O-])cc1
    106, 3, -1.3, 146, -6, 1, i
COc1ccc(Br)cc1CN(C)CC(=O)Nc1cc(Cl)ccc1Cl
    105, ., 0.8, ., 4, 1.2, i
O=C(COc1ccc2ccccc2c1)NCCc1ccc2c(c1)OCCO2
    113*[activator], -38, -0.9, 57, -5, 1.1, i

Source: PubChem (several laboratories)
